From PubChem
YopH PTP inh – YopH (Yersinia) phosphatase inhibition | fluorescence Ex485/Em525 | inhibition, %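 (about 10 µM by stock and volumes)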 | hit rate 0.16% among 140,000;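 active = inhibition of 50% or more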;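 also: controls were vehicle for no effect and minimum signal wells for full effect; inactives centre near -20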
RecA intein inh – Mtb RecA intein splicing inhibition. inhibition, %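 (about 9 µM by stock and volumes)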. hit rate 0.75% among 290,000. cell-free RecA intein splicing, fluorescence. P9WHJ3; in the data active = inhibition above about 30%;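 also: 0% = vehicle wells and 100% = reference inhibitor control wells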
Target sequence (P9WHJ3 whole entry, looked up): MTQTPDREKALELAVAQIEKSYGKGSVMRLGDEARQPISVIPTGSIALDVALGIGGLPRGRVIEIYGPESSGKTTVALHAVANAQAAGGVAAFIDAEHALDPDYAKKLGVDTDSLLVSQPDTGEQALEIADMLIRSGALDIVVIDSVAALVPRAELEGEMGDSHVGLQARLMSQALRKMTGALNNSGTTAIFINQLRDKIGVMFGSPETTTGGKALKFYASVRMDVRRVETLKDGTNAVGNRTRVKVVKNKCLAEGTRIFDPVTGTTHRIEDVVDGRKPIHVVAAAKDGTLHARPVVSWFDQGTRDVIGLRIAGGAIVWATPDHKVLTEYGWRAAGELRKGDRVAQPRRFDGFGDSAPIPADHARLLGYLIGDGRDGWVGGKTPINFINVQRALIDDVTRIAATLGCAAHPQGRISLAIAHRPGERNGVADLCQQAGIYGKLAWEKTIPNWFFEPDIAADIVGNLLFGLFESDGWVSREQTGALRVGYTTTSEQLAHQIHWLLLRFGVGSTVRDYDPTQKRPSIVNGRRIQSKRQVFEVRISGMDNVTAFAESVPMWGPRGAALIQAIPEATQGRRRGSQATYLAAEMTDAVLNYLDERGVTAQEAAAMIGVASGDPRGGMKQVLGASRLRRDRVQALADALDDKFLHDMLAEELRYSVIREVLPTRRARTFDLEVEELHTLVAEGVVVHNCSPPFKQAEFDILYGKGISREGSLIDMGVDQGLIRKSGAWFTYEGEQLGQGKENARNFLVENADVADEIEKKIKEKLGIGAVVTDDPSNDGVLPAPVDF
Mtb betalactam – beta-lactam sensitization of Mtb H37Rv. M. tuberculosis H37Rv growth with meropenem, percent inhibition; hits of this screen are not shown here. AID 434955. hit rate 0.27% among 330,000. inhibition, % at 25 µM;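 active = about 74% or more and at least 40 points above the plate without the antibiotic, then above 30% in a dose series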;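 also: growth measured after seven days incubation then overnight dye step; 0% = bacteria only wells and 100% = bacteria with antibiotic; twin plates without the antibiotic show which effects depend on it; some results filed as inactive read as strong as hits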
Mtb H37Rv – M. tuberculosis H37Rv growth inhibitors, H37Rv strain (AID 1626); inhibition, % at 10 µM, or IC50 in µM where a hit was titrated; M. tuberculosis H37Rv growth inhibition; higher % means a stronger effect; hit rate 0.95% among 220,000;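 active = confirmed in a dose series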;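 also: bacteria incubated seven days before Alamar blue readout; 0% = bacteria only wells and 100% = bacteria with antibiotic wells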
Arbovirus anti – arbovirus infection inhibition | AID 1251 | inhibition, % at 10 µM | arbovirus infection cell-based antiviral screen | hit rate 0.37% among 200,000;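 active = inhibition from about 30%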;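 also: bluetongue infection of BSR cells; cell survival read as ATP light after 72 h; 0% = infected wells without compound and 100% = uninfected wells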
Arbovirus anti repeat – second read-out of Arbovirus anti, no call of its own (marks repeat the call); inhibition, %; measured here: 10K subset replicate screen; many hits read low in the repeat;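 first of two repeat runs on a subset; 0% = infected and 100% = uninfected wells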
Starred values were filed as active, the others as inactive; · = no result given. Some of the compounds tested. The share of hits here may be higher or lower than overall.

SMILES	YopH PTP inh	RecA intein inh	Mtb betalactam	Mtb H37Rv	Arbovirus anti	others
Cn1nnnc1SCC(=O)Nc1ccccc1C(=O)NCc1ccccc1	-32	0.8	1	3%	0	Arbovirus anti repeat=-4
Cc1sc(NC(=O)C2CCCC2)c(C#N)c1C	-12	-0.9	2	0%	-11
O=C(NC1CCCC1)C1CC(=O)N(c2ccccc2)C1 (centres undefined)	·	-1.8	0	·	·
COCCn1c(SCC(=O)N2CCCC2)nnc1-c1ccco1	·	0.1	-9	·	·
c1nc(NC2CCCC2)c2[nH]cnc2n1	-15	0.7	8	3%	3
O=C(C1CCCN(Cc2ccc(F)cc2)C1)N1CCCCC1 (centres undefined)	·	-0.8	-4	·	·
CCOc1ccc(Br)cc1S(=O)(=O)Nc1ccc(C(=O)Nc2ccccc2OC)cc1	-34	-0.9	-4	4%	5
Cc1c(NC(=O)C(C)OC(=O)c2cccs2)c(=O)n(-c2ccccc2)n1C (centres undefined)	-15	-1.1	-7	6%	15
O=C(Nc1ccc2c(c1)OCO2)C1CC(=O)N(c2ccc(F)cc2)C1 (centres undefined)	·	0.6	5	·	·
CCCn1c(SCC(=O)NCc2ccco2)nc2c1c(=O)n(C)c(=O)n2C	14	2.4	-12	-17%	8
CCOc1ccc2cc(C#N)c(SCC(=O)N3CCOCC3)nc2c1	8	-1.4	90	-9%	-10
COc1ccccc1-c1noc(-c2ccncc2)n1	22	1.4	3	-7%	-5
COc1ccc([N+](=O)[O-])cc1COc1ccc2c(-c3ccccc3)cc(=O)oc2c1	-25	-0.3	-3	·	-10
Cn1cc(/C=C/c2cc[n+](C)cc2)c2cc(F)ccc21	·	-5.3	0	·	·
COc1ccc(/C=C/C(=O)C(C)(C)C)cc1OC	·	-1.5	19	7%	·
c1ccc2c(c1)CC1(CCCC1)n1nnnc1-2	-47	2.3	8	6%	-1
Cc1cc(C)n(CC(O)CN2c3ccccc3Sc3ccccc32)n1 (centres undefined)	-54	0.6	7	-8%	-7
COC(=O)c1nnn(CC(=O)NC(=O)Nc2cccc(C)c2C)c1C(=O)OC	-16	-0.4	5	1%	2
COc1cc(/C=C/C(=O)Nc2cccc(S(=O)(=O)NC3=NCCCCC3)c2)ccc1OCC#N	·	-4.0	5	·	·
O=C(c1ccco1)N1CCN(c2ccc(S(=O)(=O)N3CCCC3)cc2)CC1	-43	-0.3	-10	-13%	4
CC(C)(CC(=O)O)CC(=O)N1CCCN(c2nc3ccc(Cl)cc3s2)CC1	·	0.4	0	-7%	·
COc1cc(/C=N/N=C/c2cc(OC)c(O)c(OC)c2)cc(OC)c1O	-74	-2.7	-1	0%	-6
Cc1ccc(S(=O)(=O)NCC(=O)OCC(=O)Nc2ncc(Cl)cc2Cl)cc1	10	3.7	1	-4%	-2
Cc1cc(S(=O)(=O)N2CCCCC2CCNC(=O)C(=O)NCC2CCCO2)ccc1F (centres undefined)	·	-0.4	-7	·	·
Cc1cccc(C(=O)NC2CCCc3ccccc32)c1 (centres undefined)	·	0.7	1	1%	-4
CCn1cc(CN2CCN(CCC(C)C)C(CCO)C2)c2ccccc21 (centres undefined)	·	0.6	11	·	·
CC(NC(=O)CN(c1cccc(C(F)(F)F)c1)S(C)(=O)=O)c1ccccc1 (centres undefined)	·	0.8	0	·	·
COc1ccc(NC(=O)CSCC(=O)Nc2cc(Cl)ccc2N2CCOCC2)cc1	·	-1.5	-2	·	·
CCn1nnc(NC(=O)c2cccnc2Cl)n1	-6	1.3	-2	4%	6
Cc1cnccc1CNC(=O)CC1C(=O)NCCN1CC(C)(C)C (centres undefined)	·	0.6	-14	-4%	5
Cc1cc(C(=O)CSc2nnnn2-c2ccccc2)c(C)n1CCc1ccccc1	-40	-3.5	2	-23%	-4
O=C(c1ccccc1)N1CCN(C(=O)N2CCCCC2)CC1	-24	-1.0	46	-10%	-2
O=C(Nc1nccs1)c1cc2sccc2n1Cc1ccc(Cl)cc1	-22	1.3	0	6%	-17
C/C(=N/NC(=O)c1cccs1)c1cccc(N)c1	·	-0.2	27	-2%	-10
Cc1ccc(Sc2ncccc2COC(=O)Nc2ccccc2)cc1	-11	9.7	62	12%	16
CCN1CCCC(OC(=O)c2cc(-c3ccccc3Cl)nc3ccccc23)C1 (centres undefined)	·	1.7	2	-5%	6
COCCNC(=S)Nc1cc2oc3ccccc3c2cc1OC	·	0.1	4	·	·
Cc1ccccc1Nc1nccc(N(C)C)c1C#N	·	-2.9	-2	-2%	0
COc1ccc(/C=C(/NC(=O)c2ccccc2)C(=O)N/N=C/c2ccncc2)c(OC)c1	-25	1.7	7	-4%	-2
CC1(C)Cc2cccc(OCC(N)=O)c2O1	14	-2.0	-8	3%	4

6 neighbouring compounds out of the list so far, quoted:
SMILES	YopH PTP inh	RecA intein inh	Mtb betalactam	Mtb H37Rv	Arbovirus anti	others
CC(C)(CC(=O)O)CC(=O)N1CCCN(c2nc3ccc(Cl)cc3s2)CC1	·	0.4	0	-7%	·
COc1cc(/C=N/N=C/c2cc(OC)c(O)c(OC)c2)cc(OC)c1O	-74	-2.7	-1	0%	-6
Cc1ccc(S(=O)(=O)NCC(=O)OCC(=O)Nc2ncc(Cl)cc2Cl)cc1	10	3.7	1	-4%	-2
Cc1cc(S(=O)(=O)N2CCCCC2CCNC(=O)C(=O)NCC2CCCO2)ccc1F (centres undefined)	·	-0.4	-7	·	·
Cc1cccc(C(=O)NC2CCCc3ccccc32)c1 (centres undefined)	·	0.7	1	1%	-4
CCn1cc(CN2CCN(CCC(C)C)C(CCO)C2)c2ccccc21 (centres undefined)	·	0.6	11	·	·

Later entries
SMILES	YopH PTP inh	RecA intein inh	Mtb betalactam	Mtb H37Rv	Arbovirus anti	others
CCOC(=O)CN1CCC(c2cc(-c3ccc(Cl)cc3)n[nH]2)CC1	·	-2.1	1	·	·
Cc1nc(CCNC(=O)C2CCC(=O)N(CCc3cccc(F)c3)C2)sc1C (centres undefined)	·	3.5	-1	·	·
CC(C)c1nc(N2CCN(C(=O)c3ccco3)CC2)c(C#N)c2c1COC(C)(C)C2	·	18	5	·	·
Cc1ccc2oc(=O)c3cnn(CC(=O)NCCc4ccsc4)c3c2c1	-2	1.0	-3	0%	-3	Arbovirus anti repeat=-1
COc1cccc(CN(C(=O)COc2ccccc2[N+](=O)[O-])C2CCS(=O)(=O)C2)c1 (centres undefined)	·	-2.3	12	·	·
O=C(Cn1c(=O)c2cccn2c2ccccc21)NCCc1ccccc1	·	5.4	3	·	·
Nc1nc2cc3ccccc3cc2[nH]c1=O	·	1.0	2	·	·
COc1ccc2cnn(-c3ccccc3)c(=O)c2c1OC	36	-1.4	-7	66%	-8
COC(=O)C1=C(C(=O)c2ccc(C)cc2)C(c2ccccc2)n2nnnc2N1 (centres undefined)	-8	-0.2	3	·	0
CCOc1ccc(NC(=S)NC(=O)/C=C/c2ccc(OC)cc2)c([N+](=O)[O-])c1	-29	-1.9	-1	-3%	-21
Cc1ccc(-c2cc(C(F)F)nc(N3CCOCC3)n2)cc1	·	6.3	5	-3%	7
Cc1ccnc(NC(NC(=O)C(C)C)(C(F)(F)F)C(F)(F)F)c1	-1	1.8	-2	8%	2
CCOc1ccc(CCNS(=O)(=O)c2cc3c(cc2C)NC(=O)CO3)cc1OCC	·	3.2	-3	·	·
O=C(NNC(=O)c1ccccc1Cl)c1cc2cc(OC(F)(F)F)ccc2[nH]1	·	-2.9	5	-2%	·
C/C(CC(=O)Nc1ccccn1)=N\NC(=O)c1ccc2ccccc2c1	-23	-0.5	-5	5%	-18
CN(Cc1c(C(=O)N/N=C/c2ccc(O)cc2)nnn1-c1nonc1N)c1ccccc1	·	-6.7	-1	·	·
O=C(/C=C/c1ccc(Br)cc1)NC(=S)NNC(=O)c1ccco1	1	3.2	16	·	-6
COc1ccc(C(=O)NCc2ccc(S(N)(=O)=O)cc2)cc1[N+](=O)[O-]	·	-7.4	-5	5%	15
CCCCNC(=O)/C(C#N)=C/c1cccnc1	-10	0.8	-1	10%	5
CCCC(=O)NC(=S)Nc1ccc(N2CCN(C(=O)c3cccs3)CC2)cc1	·	1.0	97	62%	-28
CCOC(=O)c1c(C)[nH]c(C(=O)OCC(=O)Nc2cc(C)c(Cl)cc2OC)c1C	-16	-3.5	0	-9%	-20
COc1cc2cc(Oc3ccc4ccc(=O)oc4c3)c(=O)oc2cc1OC(C)=O	·	-68	-5	-7%	2
Cc1ccsc1C(=O)NCCc1c[nH]c2ccccc12	·	3.2	-1	·	·
O=C(COC(=O)COc1ccc(Cl)cc1)NCc1cccs1	-21	2.7	-1	1%	5
CCOC(=O)N1CCC(N2C(=O)c3ccccc3C2Nc2cccnc2)CC1 (centres undefined)	-3	4.5	-4	0%	7
Cc1ccc(C(=O)Nc2cccc(C(F)(F)F)c2)cc1NC(=O)c1ccno1	·	1.5	-21	7%	·
Cc1ccccc1-c1nc(-c2ccc(NC(=O)c3cccs3)cc2)no1	-33	-2.8	8	17%	0
CCCCC1=CC2=CC(=O)C(C)(OC(=O)c3ccco3)C(=O)C2=CO1 (centres undefined)	·	4.0	-1	-12%	·
Cc1cc(N=CC2=C(O)CCCC2=O)no1	-35	-1.2	-15	1%	1
COc1ccc2c(c1)c1nnc(SC)nc1n2C	-6	-4.9	-6	3%	-4
CCOC(=O)[C@@H]1[C@H]2COc3ccc(Br)cc3[C@H]2N2C(=O)N(c3cccc(Cl)c3)C(=O)[C@]12C	·	4.4	2	·	·
CCOC(=O)C1(Cc2cccc(OC)c2)CCCN(C(=O)c2ccccc2C)C1 (centres undefined)	·	4.9	-11	0%	·
CN=c1oc2ccc(Cl)cc2cc1C(N)=O	-44	3.0	0	-3%	2
Cc1cc(C)cc(NC(=S)NCc2ccncc2)c1	·	1.3	-8	6%	3
CCOC(=O)N1CCN(CC(=O)Nc2c(C(=O)OC)[nH]c3cccc(Cl)c23)CC1	-4	-0.9	-4	-8%	-2
Cc1ccc(Cn2nc(C)c(NC(=O)CSc3n[nH]c(C)c3[N+](=O)[O-])c2C)cc1	-19	-1.2	5	-4%	0
O=C(Nc1ncc2c(n1)CC(c1ccccc1)CC2=O)c1ccco1 (centres undefined)	-42	-1.1	-14	0%	-4
O=C(Nc1ccccc1)/C(=C\c1ccncc1)NC(=O)c1ccccc1	-29	-1.1	-2	-7%	-2
CN(C)CCNC(=O)CCCNC(=O)Cn1cnc2sc3c(c2c1=O)CCCC3	-24	-0.3	-6	-8%	6
CCCC(O)(CCC)C(=O)NNc1ccccc1	8	-1.7	90	77%	-35

Molecules listed so far containing a cyano group:
SMILES	YopH PTP inh	RecA intein inh	Mtb betalactam	Mtb H37Rv	Arbovirus anti	others
Cc1sc(NC(=O)C2CCCC2)c(C#N)c1C	-12	-0.9	2	0%	-11
CCOc1ccc2cc(C#N)c(SCC(=O)N3CCOCC3)nc2c1	8	-1.4	90	-9%	-10
COc1cc(/C=C/C(=O)Nc2cccc(S(=O)(=O)NC3=NCCCCC3)c2)ccc1OCC#N	·	-4.0	5	·	·
Cc1ccccc1Nc1nccc(N(C)C)c1C#N	·	-2.9	-2	-2%	0
CC(C)c1nc(N2CCN(C(=O)c3ccco3)CC2)c(C#N)c2c1COC(C)(C)C2	·	18	5	·	·
CCCCNC(=O)/C(C#N)=C/c1cccnc1	-10	0.8	-1	10%	5

Later entries.
SMILES	YopH PTP inh	RecA intein inh	Mtb betalactam	Mtb H37Rv	Arbovirus anti	others
Cc1ccc(/C=C2/C(=O)NC(=O)N(CC3CCCO3)C2=O)s1 (centres undefined)	-17	1.1	5	0%	9
COc1ccccc1Oc1nc([N+](=O)[O-])nn1CC(N)=O	·	-1.2	0	2%	1
CC(=O)c1cccc(NS(=O)(=O)c2csc(C(N)=O)c2)c1	·	-1.0	7	·	·
CCCNS(=O)(=O)c1ccc(OCC(=O)N2CCN(c3ccccc3)CC2)cc1	·	-0.2	-8	-2%	2
CN(C)N1C(=O)CC(N2CCCC2)C1=O (centres undefined)	·	-2.5	1	1%	2
COc1ncccc1-c1nnn(-c2ccccc2Br)n1	·	1.9	7	5%	·
O=C1c2ccccc2C(Nc2ccccc2)N1Cc1ccc2c(c1)OCO2 (centres undefined)	·	-0.9	-4	6%	·
CCc1ccc2ncc(C(=O)c3ccccc3)c(N3CCOCC3)c2c1	·	2.2	0	-1%	-11
CCOCCc1nnc(NC(=O)c2cc(OC)c(OC)cc2[N+](=O)[O-])s1	·	-0.8	-7	5%	10
COc1ccc(S(=O)(=O)n2nc(OC(=O)c3c(-c4ccccc4Cl)noc3C)cc2N)cc1	15	19	-3	-2%	12
Cc1cccc(OCC(=O)N(Cc2ccc(C)o2)C2CCS(=O)(=O)C2)c1 (centres undefined)	·	1.9	3	·	·
CCCCCn1c(=O)[nH]c2cc(C(=O)NCc3ccc4c(c3)OCO4)ccc2c1=O	-43	·	4	-6%	1	Arbovirus anti repeat=-6
